# 2A StopGo: High Throughput Screening for Foot and Mouth Disease Virus Antivirals; Potency, µM (highest dose often 57.9 µM), for the others: at the highest dose signal change, negative = less light; 1.2% of 410,000 active; human cells with a luciferase reporter of 2A StopGo recoding; control for the full effect not named in the record; active = well fitted falling curve with a large enough effect; inconclusive = small, poorly fitted or top-dose-only effect; inactive = no such curve, though single readings can be large or run the other way; tested in HEK293T cells; further: on the % scale 0 is the no-effect control and ±100 the full control effect; nearly all actives have a fitted effect of over 45% in size; luciferase light after 4 h
# Cruzain inh Det: qHTS Assay for Promiscuous and Specific Inhibitors of Cruzain (with detergent) | Cruzipain (Trypanosoma cruzi), P25779 | 0.43% of 200,000 active | AID 1478, 2009 | purified cruzain, Z-FR-AMC fluorescence, 0.01% Triton | Potency, µM, for inactives: max response, negative = inhibition, usual class: inhibitors;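 further: plate controls were neutral wells for no effect and buffer without enzyme for full effect; nearly all actives have a fitted effect of over 40% in size; top concentration of the series not given in the record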
# Target sequence (P25779 123-467 limits assumed): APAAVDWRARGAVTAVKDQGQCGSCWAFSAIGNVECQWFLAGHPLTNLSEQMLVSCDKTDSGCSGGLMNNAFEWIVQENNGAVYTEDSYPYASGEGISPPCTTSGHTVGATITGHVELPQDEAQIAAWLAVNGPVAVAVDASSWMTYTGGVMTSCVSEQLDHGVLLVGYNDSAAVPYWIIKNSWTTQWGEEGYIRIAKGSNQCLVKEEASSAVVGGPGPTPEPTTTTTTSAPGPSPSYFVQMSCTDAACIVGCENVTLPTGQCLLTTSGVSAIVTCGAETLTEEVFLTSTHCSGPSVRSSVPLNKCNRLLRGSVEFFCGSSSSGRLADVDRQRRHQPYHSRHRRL
#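 Steps: dispense cruzain (1.5 nM final) in acetate buffer pH 5.5 with DTT and 0.01% Triton X-100; pin-transfer compounds; incubate 15 min RT; add Z-FR-AMC (2 uM final); read fluorescence every 30 s, using the 60 s intensity change.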
# Cruzain noTriton: qHTS Assay for Promiscuous and Specific Inhibitors of Cruzain (without detergent) | Cruzipain (Trypanosoma cruzi), P25779 | purified cruzain, Z-FR-AMC fluorescence, no detergent | Potency, µM, for inactives: max response, negative = inhibition, actives largely listed as inhibitors | 2.3% of 200,000 active;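 further: plate controls were enzyme without inhibitor for no effect and buffer without enzyme for full effect; nearly all actives have a fitted effect of over 40% in size; top concentration of the series not given in the record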
#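 Detergent-free condition (0.00005% Triton X-100) in acetate buffer pH 5.5 with DTT. 1.5 nM enzyme and compound were pre-mixed 15 min, then 2 uM Z-FR-AMC substrate added; reaction progress from fluorescence change between first and third reads (60 s).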
# NS1 function inh: qHTS Assay for Inhibitors of Influenza NS1 Protein Function. 0.4% of 270,000 active. S. cerevisiae slowed by influenza A NS1, growth recovery by OD600. AID 2326, 2010. Potency, µM (highest dose often 46.1 µM), without a hit: at the highest dose activity, positive = more growth; active means well fitted rising curve with a large enough effect; inconclusive means small, poorly fitted or top-dose-only effect; inactive means no such curve, though single readings can be large or run the other way; further: nearly all actives have a fitted effect of over 50% in size
#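 In this qHTS, NS1 from influenza A is expressed in budding yeast, where it slows growth. Cells are switched from glucose to 2% galactose medium (pH 6.0, -URA), treated with compound, and growth recovery is read at OD600.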
# LASV entry inh: qHTS for Inhibitors of binding or entry into cells for Lassa Virus. Lassa virus pseudotype entry inhibition, cell reporter; control for the full effect not named in the record. 1.2% of 300,000 active. AID 540256, 2011. Potency, µM (highest dose often 37.9 µM), for inactives: at the highest dose activity change, negative = inhibition, most hits filed as inhibitors; active means well fitted inhibition curve with a large enough effect; inconclusive means small, poorly fitted or top-dose-only effect, or effect the other way; inactive means flat fitted curve, though single readings scatter; tested in HEK293 cells; further: on the % scale 0 is the no-effect control and ±100 the full control effect; nearly all actives have a fitted effect of over 50% in size; luciferase read-out
# MARV entry inh: qHTS for inhibitors of binding or entry into cells for Marburg Virus; Marburg virus pseudotyped entry inhibition, cell reporter; control for the full effect not named in the record; about a third of the inactives were read at about 46 µM; Potency, µM (highest dose often 37.8 µM), for the others: at the top dose activity change, negative = inhibition, usual class: inhibitors; 1.8% of 300,000 active; AID 540276, 2011; active = well fitted inhibition curve with a large enough effect; inconclusive = small, poorly fitted or top-dose-only effect, or effect the other way; inactive = flat fitted curve, though single readings scatter; tested in HEK293 cells; about a fifth of its hits are not listed in these tables; further: on the % scale 0 is the no-effect control and ±100 the full control effect; luciferase read-out
# RE007 growth inh: qHTS Assay for Inhibitors of the HIV-1 protein Vpr; S. pombe RE007 Vpr strain, BacTiter-Glo ATP luminescence, 24 h; control for the full effect not named in the record; Potency, µM (titrated, usually from 92.2 µM), without a hit: at the highest dose activity change, negative = less growth; 0.21% of 360,000 active; AID 651644, 2012; active = well fitted falling curve with a large enough effect; inconclusive = small, poorly fitted or top-dose-only effect; inactive = no such curve, though single readings can be large or run the other way;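 further: on the % scale 0 is the no-effect control and ±100 the full control effect; nearly all actives have a fitted effect of over 50% in size; the assay follows cell death caused by Vpr and the record does not say whether a fall means rescue or toxicity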
#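 Fission yeast strain RE007, carrying one chromosomally integrated HIV-1 vpr copy, was seeded at OD 0.01 in PMG+AL medium with 23 nL pinned compound. After 24 h at 30 °C and 99% humidity, viability was read by BacTiter-Glo luminescence.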
# SARS PLP yeast: qHTS of Yeast-based Assay for SARS-CoV PLP. Potency, µM (series often up to 32.9 µM), without a hit: at the top dose activity, positive = growth rescue. AID 485353, 2010. 0.19% of 330,000 active. S. cerevisiae expressing SARS-CoV PLpro, growth rescue; control for the full effect not named in the record; active means well fitted rising curve with a large enough effect; inconclusive means small, poorly fitted or top-dose-only effect; inactive means no such curve, though single readings can be large or run the other way; further: 0% is about no effect; nearly all actives have a fitted effect of over 55% in size; growth read by luminescence after 48 h
# The depositor's hits bear a star; ? = inconclusive; · = no result given; & = joins results of further samples; [ ] = remark or other dose. Unless noted, the call rests on the fitted dose curve; in most records, active means well fitted curve in the direction sought with a large enough effect; inconclusive means small, poorly fitted or top-dose-only effect, or another doubt; inactive means no such curve, though single readings can be large; an effect the other way counts as inactive or inconclusive. Potency means the concentration at half of the fitted maximal effect.
structure	LASV entry inh	MARV entry inh	NS1 function inh	Cruzain noTriton	RE007 growth inh	SARS PLP yeast	2A StopGo	Cruzain inh Det
CC1=C(c2ccc(C)c(C)c2)S(=O)(=O)N(Cc2ccc(C(=O)NCc3ccc(C)cc3)cc2)C1=O	·	-2%[46.1 µM]	·	7%	·	·	3%	0.6%
Cc1cc2nc(C3CCN(CC4COc5ccccc5O4)CC3)[nH]c2cc1C (configuration not stated)	·	·	0%	4%	18%	1%	-29%	-4.8%
CCN(CC)c1ccc(NC(=O)c2ccc(Cl)nc2)cc1	-7%	7.1µM*	-9%	6%	-8%	2%	10%	-1.8%
CSCCC(NC(=O)c1cccc(C)c1)C(=O)Nc1sccc1C(N)=O (configuration not stated)	?	?	10%	·	-3%	2%	19%	·
NS(=O)(=O)c1ccc(NC(=O)c2cccc3cc4ccccc4nc23)cc1	-11%	?	·	·	21%	·	-16%	·
CCOC(=O)Cn1nc(C)n(-c2ccc(F)cc2)c1=O	5%	12%[46.1 µM]	1%	·	-13%	0%	-1%	·
CC(=NNc1ccc([N+](=O)[O-])cn1)c1ccccc1	2%	7%	·	·	?	·	-7%	·
COc1ccc(CNC(=O)CN(c2ccc(C)cc2)S(=O)(=O)c2c(C)nn(C)c2C)cc1	·	·	-16%	·	9%	-4%	-10%	·
CCN1CCC2(CC1)N=C(c1ccc(F)cc1)C(=S)N2	18%[46.1 µM]	-4%[46.1 µM]	·	·	8%	0%	-12%	·
COCCNC(=O)c1cc(S(=O)(=O)N2CCOCC2)ccc1SCc1cccc(OC)c1OC	9%	-10%[46.1 µM]	·	·	-2%	0%	7%	·
Cc1ccc2c(CC(=O)Nc3ccc(S(=O)(=O)N4CCCCC4C)cc3)coc2c1 (configuration not stated)	-21%[46.1 µM]	-6%[46.1 µM]	·	25µM*	·	·	14%	-5.5%
CCOc1nc(-c2ccc(OC)cc2)ccc1-c1noc(-c2ccncc2)n1	-4%	20%&0%	-4%	-10%	11%	-10%	-1%	7.6%
O=C(CSCc1ccccc1Cl)N1CCN(c2ccccn2)CC1	-19%	5%	-19%	17%	-6%	4%	23%	2.7%
CCOC(=O)CC1(c2ccccc2)CCOC(C)(C)C1 (configuration not stated)	23%	4%[46.1 µM]	-5%	0%	17%	-15%	13%	0.6%
CCOC(=O)C(C)Oc1cccc2c(=O)n(CC(=O)Nc3ccc4c(c3)OCCO4)ccc12 (configuration not stated)	-6%	-25%&-25%	1%	?	10%	-10%	-27%	-2.2%
OCC1(CCc2ccccc2)CCN(Cc2ccc(OC(F)F)cc2)CC1	-39%[46.1 µM]	?	0%	·	10%	-2%	-24%	·
COC(=O)CCCC(=O)N1CCCC(C(=O)c2ccccc2SC)C1 (configuration not stated)	·	·	2%	·	19%	0%	-14%	·
O=C(c1ccc(-n2cccn2)cc1)N1CCN(c2ncccc2C(F)(F)F)CC1	-8%	?	-10%	·	-10%	13%	?	·
O=c1[nH]c2ccccc2c(O)c1-c1ccccc1[N+](=O)[O-]	?	23%[46.1 µM]	7%	·	-11%	-1%	-1%	·
CC(=O)Nc1ccc(NC(=O)c2c(C)noc2C)cc1	·	·	3%	·	8%	2%	10%	·
O=C(O)[C@@H]1[C@@H]2C[C@@H]2CN1c1ncccc1[N+](=O)[O-]	5%	1%[46.1 µM]	-4%	·	-3%	1%	4%	·
NC(=O)c1c(NC(=O)c2ccncc2)sc2c1CCCCCC2	7%[46.1 µM]	?	-11%	·	-22%	-2%	-8%	·
COc1cccc(C=NCC(C)N=Cc2cccc(OC)c2O)c1O (configuration not stated)	6%	0%	-9%	-1%	-14%	-22%	-15%	-5.6%
Cc1c(C(=O)Nc2c(F)cc(F)cc2Br)sc2ncn(CC(=O)N3CCCC3)c(=O)c12	-4%[46.1 µM]	4%[46.1 µM]	-7%	·	-4%	5%	-4%	·
c1cncc(CNCCN2CCNCC2)c1	21%	2%	5%	-1%	16%	·	-3%	-0.6%
CCCc1nc(SCC(=O)Nc2ccccc2OC)c2c(=O)n(C)c(=O)n(C)c2n1	·	·	-104%	25%	-3%	6%	25µM*	-1.3%
Cc1cc(C(=O)C[N+]23CCN(CC2)CC3)c(C)n1-c1ccc(Br)cc1	3%	21%[46.1 µM]	·	·	3%	0%	-9%	·
COc1ccc(OC)c(N(/C(N)=N/c2nc(C)cc(C)n2)S(=O)(=O)c2ccc(NC(C)=O)cc2)c1	·	-10%[46.1 µM]	-19%	·	20%	-1%	1%	·
CC(SCc1ccccc1)C(=O)NCc1ccccn1 (configuration not stated)	14%	-8%[46.1 µM]	0%	·	7%	4%	17%	·
N#Cc1c(-c2ccccc2)cc(C2CC2)nc1SCC(=O)c1cccs1	-18%	1%	4%	?	-2%	3%	-7%	1.4%
CCN(CC(=O)NCc1cccs1)C(=O)c1ccc(S(=O)(=O)N(C)c2ccccc2)cc1	?	-4%	·	·	-2%	6%	-24%	·
O=C(CSc1nnc(-c2ccco2)n1Cc1ccccc1)NC(=O)NCc1ccco1	-20%	-27%	0%	-2%	6%	3%	-21%	-2.6%
COC(=O)C1C2C=CC3(CN(c4ccc(Cl)c(F)c4)C(=O)C13)O2 (configuration not stated)	·	·	-1%	4%	-3%	7%	-15%	1.9%
COc1ccc(CCNC(=O)c2ccc3c(c2)N(Cc2ccc(F)cc2)C(=O)CS3)cc1OC	?	·	·	1%	·	·	?	4.5%
COc1cccc(-c2cc(C(=O)O)no2)c1	5%	-3%	8%	4%	-22%	-7%	·	-1.4%
COc1ccc([C@@H]2C[C@H]3CN(c4ccccc4)C(=O)[C@]34CCCN24)c(OC)c1OC	·	·	7%	·	13%	0%	-10%	·
O=C(Nc1nnc(C2CC2)s1)c1n[nH]c(=O)c2ccccc12	·	·	-2%	·	8%	-1%	-12%	·
Nc1nc(Nc2ccccc2F)nc(NCCO)c1[N+](=O)[O-]	·	·	5%	·	7%	0%	9%	·
CC1CCCCN1C(=O)COC(=O)c1cccc(NS(=O)(=O)c2ccccc2)c1 (configuration not stated)	?	?	·	·	10%	18%	3%	·
Cc1nc(-c2ccc(F)cc2)sc1CCNC(=O)Cc1ccc(F)cc1	12%[46.1 µM]	·	·	6%	·	·	0%	-5.3%
C=C1C(=O)[C@@]23[C@H](O)C[C@@H]4C(C)(C)CC[C@H](O)[C@]4(C)[C@@H]2C[C@H](O)[C@@H]1[C@H]3O	?	21µM*	4%	3%	2%	4%	?	1.0%
Cc1cc2cc(CNC(=O)c3cccs3)ccc2[nH]1	·	·	7.1µM*	?	2%	-4%	116%[activator]	1.7%
CCOC(=O)Cn1c(=O)c2c(nc(Br)n2Cc2ccccc2Cl)n(C)c1=O	?	-20%	-16%	6%	24%	-3%	?	-6.6%
CC1(C)CC(=O)C2=C(C1)OC1OC(=O)CC21C (configuration not stated)	1%	2%[46.1 µM]	-4%	·	1%	0%	-3%	·
Cc1snc(S(=O)(=O)Cc2c(Cl)cccc2Cl)c1C#N	2%	6%	6%	-9%	-1%	1%	25%	-1.1%
Cc1cc(N/N=C/c2cccc(Cl)c2)nc(NCc2ccccc2)n1	?	18µM*	-17%	5%	-7%	-31%	-21%	-13%
C[C@H](NC(=O)[C@@H]1CSC2c3ccccc3C(=O)N21)C(=O)NC1CCCC1 (some centres not stated)	·	·	1%	·	12%	-3%	-6%	·
O=C(CCCSc1ccccc1)Nc1nc(-c2ccco2)c(-c2ccco2)s1	?	?	23%	8%	10%	-4%	0%	-7.8%
Cc1ccccc1S(=O)(=O)/N=C(/Nc1c(C)n(C)n(-c2ccccc2)c1=O)c1ccccc1	-13%	-12%	·	·	18%	-3%	5%	·
CC(C)C[C@H](NC(=O)c1nc[nH]c1C(=O)N1CCc2ccccc2C1)C(=O)OCc1ccccc1	·	·	-11%	·	11%	-4%	-21%	·
Cc1ccc2c(c1)N(CC(=O)N1CCCCCC1)C(=O)c1cccnc1O2	·	·	5%	·	0%	0%	-4%	·
CC(C)Oc1cccc(C(=O)C2CCCN(C(=O)CCc3cnn(C)c3)C2)c1 (configuration not stated)	-26%	-27%	-7%	·	4%	7%	6%	·
[S-]C(=Nc1ccc(Cl)cc1)N[n+]1ccccc1	3%	?	-2%	7.9µM*	-21%	1%	-1%	20µM*
CC1CN(C(=O)CCNS(=O)(=O)c2ccc(Br)cc2)CC(C)O1 (configuration not stated)	4%[46.1 µM]	0%	·	·	-15%	5%	2%	·
O=C(N=C1c2ccccc2CN1c1ccc(F)cc1)c1ccc(Cl)nc1	-8%	3%	-2%	-20%	-19%	8%	28%	-3.9%
COc1ccccc1N(CC(=O)NCCSc1ccccc1)S(=O)(=O)c1ccc(C)cc1	?	?	·	1%	·	·	-26%	-6.2%

# Other results:
structure	LASV entry inh	MARV entry inh	NS1 function inh	Cruzain noTriton	RE007 growth inh	SARS PLP yeast	2A StopGo	Cruzain inh Det
O=C(NCc1ccc(F)cc1)C1CCN(S(=O)(=O)c2ccc(Br)s2)CC1	?	-29%[46.1 µM]	-3%	·	-1%	-2%	?	·
CCOC(=O)c1cc(NC(=O)C2C3C=CC(O3)C2C(=O)O)cc(C(=O)OCC)c1 (configuration not stated)	14%[46.1 µM]	5%[46.1 µM]	-3%	·	4%	6%	-14%	·
Cc1nc2ccc(F)cc2cc1C(=O)NC(C)C	18%	4%	7%	1%	8%	0%	-18%	1.4%
OCCN(Cc1ccccc1)Cc1ccccc1F	43%[14.3 µM]	7%	13%	-5%	7%	-1%	-9%	0.6%
Cc1nn(-c2ccc(F)cc2)c(-n2cccc2)c1C(=O)N1CCN(c2ccccc2F)CC1	1%[46.1 µM]	·	·	6%	·	·	?	-3.5%
C(=N\NC1=Nc2cccc3cccc1c23)/c1ccccc1	?	?	4%	?	-2%	7%	33%[activator]	-13%
COc1ccc(N(CC(=O)Nc2cccc(C(C)=O)c2)S(=O)(=O)c2ccccc2)c(OC)c1	?	?	·	14%	·	·	11%	-4.5%
